FEN1 inhibitor – inhibitors of human flap endonuclease 1 | 390,000 compounds, 0.35% hits | AID 588795 | Potency, µM (doses to about 114 µM), inactives show at the top dose activity change, negative = inhibition, usual class: inhibitors | P39748 | Recombinant FEN1 flap cleavage, fluorescence, 15 min; note: nearly all actives have a fitted effect of over 65% in size
Target sequence (P39748 whole entry, looked up): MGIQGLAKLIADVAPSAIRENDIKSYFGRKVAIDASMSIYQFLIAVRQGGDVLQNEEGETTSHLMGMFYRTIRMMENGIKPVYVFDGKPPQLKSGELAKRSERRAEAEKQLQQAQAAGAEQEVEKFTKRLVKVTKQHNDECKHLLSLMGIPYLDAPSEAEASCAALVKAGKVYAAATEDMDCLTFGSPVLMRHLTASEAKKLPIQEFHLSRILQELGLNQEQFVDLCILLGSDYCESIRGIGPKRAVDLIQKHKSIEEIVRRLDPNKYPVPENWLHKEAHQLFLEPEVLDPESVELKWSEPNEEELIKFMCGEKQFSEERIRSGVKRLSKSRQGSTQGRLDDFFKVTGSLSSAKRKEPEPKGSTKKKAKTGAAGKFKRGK
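FEN1 at 10 nM preincubated with compounds 15 min at room temperature, then flap DNA substrate added at 50 nM final. Signal read at 0 and 15 min; concentration-response fitted with four-parameter Hill equation.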
DT40 TDP1 CPT – growth inhibition of DT40 Tdp1-/-;hTDP1 cells with camptothecin (screen for TDP1 inhibitors); chicken DT40 Tdp1-/-;hTDP1 cells + 20 nM CPT, ATP luminescence, 48 h; Potency, µM (titrated, usually from 46.2 µM), for the others: at the top dose activity change, negative = growth inhibition, usual class: inhibitors; 420,000 compounds, 12% hits; AID 686979; note: nearly all actives have a fitted effect of over 55% in size
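Chicken DT40 Tdp1-/- cells stably complemented with human TDP1 were seeded at 400 cells/well in medium containing 20 nM camptothecin, exposed to pin-transferred compounds, and grown at 37 °C for at least 48 hr. Viability was read as ATP luminescence.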
Active calls of the source: *; ? = inconclusive; & = joins results of further samples; [ ] = another dose, or the depositor's remark. Calls come from the whole dose curve; as a rule, active = well fitted curve in the direction sought with a large enough effect; inconclusive = small, poorly fitted or top-dose-only effect, or another doubt; inactive = no such curve, though single readings can be large; an effect the other way counts as inactive or inconclusive. % is set by controls: 0 for no effect and ±100 for the full control effect; potency is the fitted concentration of half-maximal effect.

nr	Structure	FEN1 inhibitor	DT40 TDP1 CPT
1	CCOC(=O)N1CCC(NC(=O)c2cc(C(=O)NC3CCCC3)ccc2CO)CC1	23%	-12%
2	COc1ccc(-c2cc(C(=O)N/N=C/c3ccc4c(c3)OCO4)c3ccccc3n2)c(OC)c1	-7%	9.2µM*
3	CC(=O)NC(CC(=O)OCc1ccc([N+](=O)[O-])cc1)c1ccccc1 (stereo not given)	6%	?
4	COc1ccccc1NC(=O)c1ccc2c(c1)C(=O)N(Cc1ccco1)C2=O	35%[activator]	?
5	CCOC(=O)C1CCCN(S(=O)(=O)c2ccc(S(N)(=O)=O)cc2)C1 (stereo not given)	-10%	-1%
6	COc1ccc(C(=O)C2CCCN(C(=O)/C=C/c3ccccn3)C2)c(C)c1 (stereo not given)	7%	-4%
7	CCN(CC)C(=O)C1=C(C)Nc2ncnn2C1c1cccnc1 (stereo not given)	7%	1%
8	Cc1cc(=O)n2[nH]c(N3C(=O)CCC3=O)nc2n1	2%	-8%
9	Cc1oc2ccc(O)cc2c1C(=O)c1ccccc1	-2%	20%
10	CC1CCc2nc3ccccc3c(C(=O)OCC(=O)N(C)C3CCS(=O)(=O)C3)c2C1 (stereo not given)	-4%	-5%
11	CCn1cc(/C=C(\NC(=O)c2cc(OC)c(OC)c(OC)c2)C(=O)N2CCN(C)CC2)c2ccccc21	6%	-21%
12	Cc1ccn2c(CN3CCOCC3)c(-c3ccccc3)nc2c1	-3%	-29%
13	CC(Oc1ccc(Cl)cc1)c1ccnc(N)n1 (stereo not given)	1%	20%
14	CCCCN(CC)CCCNC(=O)CC1Oc2ccccc2NC1=O (stereo not given)	-1%	-19%
15	COc1ccccc1NC(=O)c1ccc(NC(=O)COC(=O)CCC2CCCC2)cc1	-13%	2%
16	CCOC(=O)N1CCC(NC(=O)C(CC(C)C)NC(=O)C2CCC(C)CC2)CC1 (stereo not given)	7%	?
17	COc1ccccc1NC(=O)CCN1C(=O)/C(=C\c2cc(OC)c(OC)c(OC)c2)SC1=S	-6%	-13%
18	Cc1cccc(NC(=O)COc2coc(CN3CCN(c4ccccc4)CC3)cc2=O)c1	4%	21µM*
19	Cc1noc(/C=C/c2ccco2)c1S(=O)(=O)N1CCC(C(=O)N2CCc3ccccc32)CC1	-5%	?
20	O=C1C(Oc2ccccc2)C(c2ccc3c(c2)OCO3)N1CCc1ccc(F)cc1 (stereo not given)	0%	-27%
21	CCS(=O)(=O)c1ccc(-c2cccc(NC(=O)COc3ccccc3)c2)nn1	33%[activator]	-60%
22	Cc1cc(CN2CCCCC2C(=O)Nc2ccc(Oc3cccnc3)cc2)oc1C (stereo not given)	13%	?
23	Cc1nn(Cc2ccc(F)cc2)c(C)c1NC(=O)CCCn1nc([N+](=O)[O-])cc1C	-1%	-2%
24	COc1ccc(OC)c(NC(=O)c2ccc(-c3csc(C)n3)cc2)c1	-6%	?
25	CCn1c(=O)cc(SCC(=O)N2CCN(c3ccccc3F)CC2)c2ccccc21	-4%&-2%	?
26	Cc1c(NCc2ccccc2O)c(=O)n(-c2ccccc2)n1C	20%	-5%
27	CC(C)CNC(=O)CSc1ccc(Cl)cc1	6%	-5%
28	Cc1ccc2nc(-c3ccc(NC(=O)COC(=O)c4ccco4)cc3)sc2c1	-5%	-22%
29	CCOC(=O)C(C(=O)Nc1ccc(C)cc1)C1CCCCC1 (stereo not given)	0%	?
30	CCN(CC)S(=O)(=O)c1ccc(Oc2ccccc2)c(N)c1	2%	?

Pulled by compound from the list above:
nr	Structure	FEN1 inhibitor	DT40 TDP1 CPT
26	Cc1c(NCc2ccccc2O)c(=O)n(-c2ccccc2)n1C	20%	-5%
22	Cc1cc(CN2CCCCC2C(=O)Nc2ccc(Oc3cccnc3)cc2)oc1C (stereo not given)	13%	?

Remaining list, next part.
nr	Structure	FEN1 inhibitor	DT40 TDP1 CPT
31	Cc1ccc(C)n1-c1ccc(N2CCOCC2)nc1	5%	-24%
32	COc1ccc(C(=O)O)cc1S(=O)(=O)NCCN(C)C	-4%	2%
33	CN(C)S(=O)(=O)c1cccc(-c2cn3cc(Cl)ccc3n2)c1	-6%	-17%
34	O=C(Cn1ncc(N2CCCC2)c(Cl)c1=O)c1ccc(Cl)cc1	-7%	4%
35	CC(=O)NC1CC2CCCC(C1)N2CC(=O)NCc1ccc(F)cc1 (stereo not given)	-18%	-7%
36	Cn1c(=O)oc2cc(S(=O)(=O)NCc3cccnc3)ccc21	-13%	1%
37	Nc1cc(=O)[nH]c2nnc(SCC(=O)Nc3cccc4ccccc34)n12	0%	13%
38	CSc1cc(-c2ccc(Cl)cc2)n(Cc2ccccc2)c(=O)c1C#N	-8%	?
39	Cc1ccc(NC(=O)c2cccnc2)cc1S(=O)(=O)N1CCOCC1	-7%	4%
40	C/C(CCc1ccc2c(c1)OCO2)=N\N=C(/N)SC1CC(=O)N(c2ccccc2F)C1=O (stereo not given)	7%	?

Exported with values under each structure: entries from further up
Values in the order – FEN1 inhibitor, DT40 TDP1 CPT
#31 Cc1ccc(C)n1-c1ccc(N2CCOCC2)nc1
    5%, -24%
#40 C/C(CCc1ccc2c(c1)OCO2)=N\N=C(/N)SC1CC(=O)N(c2ccccc2F)C1=O (stereo not given)
    7%, ?
#33 CN(C)S(=O)(=O)c1cccc(-c2cn3cc(Cl)ccc3n2)c1
    -6%, -17%
#39 Cc1ccc(NC(=O)c2cccnc2)cc1S(=O)(=O)N1CCOCC1
    -7%, 4%
#37 Nc1cc(=O)[nH]c2nnc(SCC(=O)Nc3cccc4ccccc34)n12
    0%, 13%

Another view of six compounds above.
#35 CC(=O)NC1CC2CCCC(C1)N2CC(=O)NCc1ccc(F)cc1 (stereo not given)
#36 Cn1c(=O)oc2cc(S(=O)(=O)NCc3cccnc3)ccc21
#37 Nc1cc(=O)[nH]c2nnc(SCC(=O)Nc3cccc4ccccc34)n12
#38 CSc1cc(-c2ccc(Cl)cc2)n(Cc2ccccc2)c(=O)c1C#N
#39 Cc1ccc(NC(=O)c2cccnc2)cc1S(=O)(=O)N1CCOCC1
#40 C/C(CCc1ccc2c(c1)OCO2)=N\N=C(/N)SC1CC(=O)N(c2ccccc2F)C1=O (stereo not given)

compound no.	35	36	37	38	39	40
FEN1 inhibitor	-18%	-13%	0%	-8%	-7%	7%
DT40 TDP1 CPT	-7%	1%	13%	?	4%	?

Next part.
nr	Structure	FEN1 inhibitor	DT40 TDP1 CPT
41	c1ccc(CCNCCOc2ccccc2)cc1	10%	9%
42	CC12CN3CC(C)(CN(C1)C3c1cc3ccccc3[nH]1)C2=O (stereo not given)	-3%	-12%
43	NS(=O)(=O)c1ccc(NNC(=O)c2sccc2Cl)cc1	2%	5%
44	CCC1=NN(C(=O)CCc2ccccc2)C(O)(C(F)(F)F)C1 (stereo not given)	-9%	1%
45	Cc1ccc(-c2ccc(/C=N/c3ncn[nH]3)o2)cc1Cl	-14%	2%
46	Cn1c(S(=O)(=O)c2ccc([N+](=O)[O-])cc2)nc(Br)c1Br	-14%	21µM*
47	CCOc1ccc(C(=O)NC(=S)Nc2cccc(S(=O)(=O)NC3=NCCC3)c2)cc1	-2%	0.82µM*
48	CCOc1ccc(NC(=O)CCSc2ccc(C)cc2)cc1	-8%	?
49	Cc1ccc(-n2nnnc2Sc2nc([N+](=O)[O-])nn2C)cc1C	-3%	?
50	CNC(=S)N/N=C/c1ccc2c(c1)OCCO2	20%	-3%

5 of the compounds above, screen by screen.
42: CC12CN3CC(C)(CN(C1)C3c1cc3ccccc3[nH]1)C2=O (stereo not given)
43: NS(=O)(=O)c1ccc(NNC(=O)c2sccc2Cl)cc1
44: CCC1=NN(C(=O)CCc2ccccc2)C(O)(C(F)(F)F)C1 (stereo not given)
45: Cc1ccc(-c2ccc(/C=N/c3ncn[nH]3)o2)cc1Cl
46: Cn1c(S(=O)(=O)c2ccc([N+](=O)[O-])cc2)nc(Br)c1Br

screen / no. | 42 | 43 | 44 | 45 | 46
FEN1 inhibitor | -3% | 2% | -9% | -14% | -14%
DT40 TDP1 CPT | -12% | 5% | 1% | 2% | 21µM*

(cont.)
nr	Structure	FEN1 inhibitor	DT40 TDP1 CPT
51	CCOc1ccc(C(=O)OCC(=O)NCCNC(=O)COC(=O)c2ccc(OCC)cc2)cc1	-1%	-2%
52	CC(C)OC(=O)C1C(=O)CC(C)(O)C(C(=O)OC(C)C)C1c1cccnc1 (stereo not given)	-11%	-3%
53	Cn1c(CNC(=O)c2ccco2)nnc1SCC(=O)Nc1cccc(F)c1	2%	-11%
54	Clc1ccc(N/N=C/c2cccs2)nn1	-16%	14%
55	Cc1ccc(C)c(S(=O)(=O)Nc2cc3c4c(c2)CCC(=O)N4CCC3)c1	-15%	?
56	C/C=N\NC(=O)COc1cc(C)ccc1C	-4%	14%
57	Cc1ccccc1NS(=O)(=O)c1cccc2nonc12	4%	-24%
58	CC(NC(=O)c1ccc(Cn2cc([N+](=O)[O-])cn2)cc1)c1ccccc1 (stereo not given)	4%	?
59	Cc1cc(/C=C(\C#N)C(N)=O)c(C)n1-c1ccc(N2CCOCC2)c([N+](=O)[O-])c1	12%	23µM*
60	COc1ccccc1C(=O)NC(=O)COC(=O)Cn1cnc2c1c(=O)n(C)c(=O)n2C	2%	2%
61	COc1ccccc1C1CC(=O)Oc2c(C(C)C)ccc(C)c21 (stereo not given)	-23%	-11%
62	CC1CN(C2CCN(S(=O)(=O)c3ccccc3)CC2)CC(C)O1 (stereo not given)	2%	-16%
63	COc1cccc(C(=O)C2CCCN(C/C=C/c3ccccc3OC)C2)c1 (stereo not given)	-14%	-30%
64	COc1cc2c(cc1OC)CN(c1ccc(C(F)(F)F)cn1)CC2	1%	?
65	CN(C(=O)Cn1nc(C(=O)O)c2ccccc2c1=O)c1ccccc1	3%	8%
66	O=C1/C(=C/c2cccs2)SC(=S)N1N1CCOCC1	-12%	-25%
67	CC(=O)Nc1ccc2c(c1)nc(CCN1CCN(c3ccccn3)CC1)n2C	1%	3%
68	COc1ccc(C(C(=O)NCc2ccc(F)cc2)N(C(=O)c2csnn2)C2CC2)cc1 (stereo not given)	-1%	-7%
69	Cc1nc2ccccn2c1C(=O)c1ccccc1	-1%	3%
70	CC(C(=O)OCC(=O)c1ccccc1)N1C(=O)C2C3CCC(C3)C2C1=O (stereo not given)	13%	-9%
71	COc1ccc(C2=NOC(C(=O)N3CCOCC3)C2)cc1OC (stereo not given)	26%	-9%
72	Cn1c(=O)c(=O)n(C)c2cc(S(=O)(=O)CCC(=O)Nc3ccc(C(F)(F)F)cc3)ccc21	18%	7%
73	Cc1ccc(-c2nnc3ccc(SC(C)C(=O)O)nn23)cc1 (stereo not given)	1%&6%	-7%&-9%
74	O=C(COc1ccc2c(-c3ccccc3)cc(=O)oc2c1)NCc1ccccn1	2%	?
75	COc1ccc(/C=C(\C#N)C(=O)OCC(=O)NCc2ccccc2Cl)cc1	0%	4%
76	CCn1cc(C(=O)N(C)c2ccc(OC)cc2)c2cc(OC)c(OC)cc2c1=O	-3%	-1%
77	O=C(O)c1ccc2c(c1)N(Cc1cccc(F)c1)C(=O)CS2	-8%	9%
78	Cc1cc(C)cc(-n2c(=O)c3sccc3n(CC(=O)NCc3ccco3)c2=O)c1	-6%	-9%
79	O=C(CC1CCCCC1)N=C1SC2CS(=O)(=O)CC2N1c1ccccc1 (stereo not given)	-4%	-21%
80	CN(CC(=O)NCCN1CCN(c2ccccc2)CC1)S(=O)(=O)c1ccc2c(c1)CCC(=O)N2	-1%	?
81	COc1cc(-c2cc(C(=O)NCc3ccco3)c3ccccc3n2)cc(OC)c1OC	3%	?
82	O=C(Nc1nnc(/N=C/c2ccco2)s1)c1ccc(F)cc1	11%	?
83	COc1ccc(C2OC34CCCCC3C(C#N)(C#N)C2(C#N)C(=N)O4)cc1 (stereo not given)	-12%	5.8µM*
84	CC(C)Cn1c(-c2ccc(Br)cc2)c[nH]c1=S	-15%	16µM*
85	CCN(CC)C(=N)/C(C#N)=N/Nc1ccc(C)cc1	-1%	10%
86	COc1ccc(C(=O)OCC(=O)NC(C)CCc2ccccc2)c(OC)c1 (stereo not given)	-2%	-3%
87	COc1ccc(CNc2nc3c(c(=O)[nH]c(=O)n3C)n2Cc2ccccc2)cc1	-2%	-1%
88	CS(=O)(=O)N1CCN(C(=O)c2c(F)cccc2F)CC1	-10%	-5%
89	COc1ccc(CCN2C(=O)N[C@@H](C(C)C)C2=O)cc1	-5%	13%
90	Cc1ccc(NC(=O)CN2CCOCC2)cc1	4%	17%
91	CSc1n[nH]c(NCc2ccc(Cl)cc2)n1	6%	-16%
92	CCCCCNC(=O)C(C)NS(=O)(=O)c1ccc(OC)cc1 (stereo not given)	3%	-6%

Screening data as filed in PubChem.

This is a subset, and most or all hits are left out here.
